# B2AR ag: human beta-2 adrenergic receptor agonism by FAP; AID 504454; Am2.2-beta2AR cells, FAP receptor internalization, flow cytometry; reference of the scale not given here; 0.43% of 340,000 active; response, % (test concentration not listed);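 active = response above a set limit, near 3 SD of response in nonfluorescent compounds, cut at about 42% in these data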;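 also: stock transfer was 100 nL into about 11 µL; a reference agonist was the positive control; negative values mostly stem from fluorescent compounds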
# Target sequence (P07550 whole entry, looked up): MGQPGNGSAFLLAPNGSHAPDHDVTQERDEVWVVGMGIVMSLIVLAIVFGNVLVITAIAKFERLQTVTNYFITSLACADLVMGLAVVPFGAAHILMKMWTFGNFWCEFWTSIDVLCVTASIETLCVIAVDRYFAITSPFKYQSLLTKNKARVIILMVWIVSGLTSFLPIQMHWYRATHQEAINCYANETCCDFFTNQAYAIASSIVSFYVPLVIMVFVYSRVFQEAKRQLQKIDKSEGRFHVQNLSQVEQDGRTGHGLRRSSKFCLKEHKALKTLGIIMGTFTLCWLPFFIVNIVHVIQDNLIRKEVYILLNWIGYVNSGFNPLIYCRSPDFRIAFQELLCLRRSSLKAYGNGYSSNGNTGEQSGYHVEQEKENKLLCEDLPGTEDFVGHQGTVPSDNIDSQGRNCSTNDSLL
# Vif A3G: HIV-1 Vif–A3G interaction blockers – biochemical, TR-FRET, GST-Vif 1-94, biotin-A3G peptide, dose response retest, primary screen (AID 1117319); TR-FRET GST-Vif / biotin-A3G peptide binding; higher % means a stronger effect; test concentration not given here; strong numbers were not always called active; one-dose inhibition, %; IC50 in µM for titrated hits; 0.57% of 260,000 active;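 active = above the screen mean plus three standard deviations and confirmed in dose response; inconclusive = results disagree or hit not tested in dose response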;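 also: Vif residues 1-94 fused to GST binding biotinylated APOBEC3G peptide 110-148; 0% = full assay without inhibitor and 100% = GST in place of GST-Vif; retest series ran down from 100 µM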
# ALR H2O2 inh: human ALR oxidase inhibition via reduced H2O2 | P55789 | purified ALR, DTT oxidation, H2O2 HRP-luminol luminescence | inhibition, % (no concentration beside the values) | 3.8% of 290,000 active | AID 485317;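 active = mean and each replicate at 75% or more; inconclusive = only one of the two met; inactive = neither met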;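 also: stock transfer was 7.5 nL into about 7.5 µL; 0% = neutral wells and 100% = wells with inactivated enzyme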
# Target sequence (P55789 whole entry, looked up): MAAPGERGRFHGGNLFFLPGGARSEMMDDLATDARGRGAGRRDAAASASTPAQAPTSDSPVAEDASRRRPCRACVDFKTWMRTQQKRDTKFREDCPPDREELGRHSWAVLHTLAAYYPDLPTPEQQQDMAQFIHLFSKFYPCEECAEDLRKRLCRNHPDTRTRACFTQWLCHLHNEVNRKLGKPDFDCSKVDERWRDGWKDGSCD
# HNF4A DNA FP: change in binding of human HNF4 alpha to DNA; P41235; HNF4a-FITC DNA binding, fluorescence polarization, 1 h; activity change, % at 10 µM; 0.3% of 360,000 active; AID 1224865; in the data active = activity change above about 30%, passing the limit was not always enough;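 also: controls were the assay level and a saturating level of protein; the project sought stronger binding though the title names inhibitors; some compounds called inactive have numbers as strong as hits; positive values seem to mean higher polarization but the record does not say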
# Target sequence (P41235 whole entry, looked up): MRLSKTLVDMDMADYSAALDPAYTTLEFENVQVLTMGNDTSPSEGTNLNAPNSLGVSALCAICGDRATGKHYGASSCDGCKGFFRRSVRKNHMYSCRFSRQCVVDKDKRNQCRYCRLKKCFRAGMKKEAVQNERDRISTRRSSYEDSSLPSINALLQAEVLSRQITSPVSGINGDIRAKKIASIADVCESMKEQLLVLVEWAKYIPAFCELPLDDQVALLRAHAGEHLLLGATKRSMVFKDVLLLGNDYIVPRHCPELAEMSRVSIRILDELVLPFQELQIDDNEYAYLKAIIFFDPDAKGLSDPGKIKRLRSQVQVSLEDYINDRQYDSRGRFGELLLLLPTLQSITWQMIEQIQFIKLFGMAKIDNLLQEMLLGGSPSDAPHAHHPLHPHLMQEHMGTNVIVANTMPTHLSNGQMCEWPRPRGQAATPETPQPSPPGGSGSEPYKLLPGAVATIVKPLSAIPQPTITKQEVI
# RanGTP-Impb inh: disruptors of Ran-importin-beta complex formation – biochemical, FRET, CFP-Ran, YFP-importin-beta, homogeneous, primary screen. cell-free CFP-Ran/YFP-importin-beta FRET ratio. inhibition, % (no concentration beside the values). 1.1% of 300,000 active. AID 2216;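 active = most replicates above 15%; inconclusive = exactly half above 15%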;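 also: 0% = DMSO wells and 100% = Ran loaded with GDP instead of GTP; wells of about 40 µL received 100 nL stock; the first replicate is given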
# LANA-H2A inh: blocks KSHV LANA binding to histone H2A/H2B. AID 2629. Q9QR71. 0.6% of 320,000 active. cell-free LANA-H2A/H2B peptide, fluorescence polarization. inhibition, % (concentration not given with the values); in the data active = inhibition mostly above about 10%, no sharp cut-off; inactive = mostly below about 6.7%;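 also: stock transfer was 7.5 nL into about 10 µL; 0% = median of vehicle wells and 100% = median of positive control wells; one replicate is shown; the record names a cut of 25% in any replicate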
# Calb FLC: affects C. albicans growth with fluconazole; C. albicans CaCi-2 (fluconazole-resistant clinical isolate) + fluconazole, Alamar Blue growth, 48 h; growth inhibition, % (test concentration not listed); 0.57% of 300,000 active; AID 1979;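 active = most replicates above 75%; inconclusive = exactly half above 75%; inactive = most below 75%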;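 also: all wells also contain fluconazole at 8 µg/ml as a sub-toxic cotreatment; 0% = median of DMSO wells and 100% = median of geldanamycin control wells; wells of about 8 µL received 7.5 nL stock; the first replicate is given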
# * marks the source's active call; other numbers are inactive results; ? = inconclusive; / = no result given; & = joins results of further samples. Compounds as they come; any-hit rate near 6.3%.
SMILES,B2AR ag,Vif A3G,ALR H2O2 inh,HNF4A DNA FP,RanGTP-Impb inh,LANA-H2A inh,Calb FLC
COC(=O)NNC(=O)/C=C/c1ccccc1,-3,3%,-1,3.1,9.7,-4.7,-5
CC(=O)NN1C(=O)/C(=C\c2ccc(O)cc2)SC1=S,-11,/,99*,82*,-4.6,-31,15
Cc1ccccc1N(CC(=O)NCCSC1CCCCC1)S(=O)(=O)c1ccccc1,-8,-6%,-11,5.8,-4.2,-6.0,-29
O=C(Nc1cc(=O)[nH]c(=O)[nH]1)c1cccc(Br)c1,-1,2%,28,0.7,4.9,-7.6,2
Cc1cc(C)c(NC(=O)CSc2nc3ccc(NC(=O)CSc4nnnn4Cc4ccccc4)cc3s2)c(C)c1,-4,12%,-15,7.0,0.9,-0.2,-6
Cc1ccc(-n2nnnc2SCc2nc3sc(C)c(C)c3c(=O)[nH]2)cc1,6,/,1,30,0.7,2.4,-15
Cc1ccc2sc(N(CCN(C)C)C(=O)c3ccc(S(=O)(=O)N4CC(C)OC(C)C4)cc3)nc2c1C (configuration not stated),3,/,-4,0.9,-3.2,-2.0,-6
CCOC(=O)c1ccc(COC(=O)CNS(=O)(=O)c2ccccc2)cc1,-3,-3%,0,3.2,6.3,-0.2,1
COc1ccc2nc(-c3ccccc3)[nH]c(=O)c2c1,-1,-10%,/,-0.6,/,/,/
O=C1C2N=NN(CC(=O)N3N=C(c4ccccc4)CC3c3ccc([N+](=O)[O-])cc3)C2C(=O)N1c1ccccc1 (configuration not stated),/,28%,2,/,8.9,-3.6,41
COC(CNC(=O)c1cccnc1)OC,4,?,0,-0.2,9.2,4.2,?
O=S(=O)(c1cccs1)N1CCC2(CC1)OCCN2S(=O)(=O)c1ccccc1,4,0%,1,-3.3,-5.8,0.9,-5
COc1ccc(C(N)CCc2ccc(C)o2)cc1 (configuration not stated),10,4%,1,10,-7.0,2.7,0
CC(=O)N1CCc2cc(S(=O)(=O)NC(C)c3ccccc3)ccc21 (configuration not stated),-16,6%,5,0.0,2.9,5.0,3
CC1CN(C(=O)c2ccc(CNS(=O)(=O)c3cccc(C(F)(F)F)c3)cc2)CC(C)O1 (configuration not stated),7,3%,-2,-0.7,1.6,-3.5,5
O=C(N/C(=C\c1cccnc1)C(=O)N1CCC(O)CC1)c1ccccc1,-2,/,/,1.7,4.1,3.5,-10
COc1ccc(OC)c(NC(=O)CSc2nc3c(c(=O)n(C)c(=O)n3C)n2C)c1,7,3%,-83,-3.3,2.7,3.3,9
CC(C)(C)c1ccc(-n2ncc3c2CCCC3NC(=O)c2cnccn2)cc1 (configuration not stated),20,/,-1,4.0,3.8,8.9,-2
O=C(Cc1cccs1)Nc1ccc(F)c(S(=O)(=O)N2CCOCC2)c1,-4,20%,/,0.5,/,/,/
Cc1nnsc1C(=O)N1CCCC(C(=O)c2ccc(C(F)(F)F)cc2)C1 (configuration not stated),-2,/,-9,2.1,?,-5.2,-10
COc1ccc(N2C(=O)[C@@H]3Cc4ccccc4CN3C2=O)cc1,-6,9%,-5,-1.8,0.6,0.8,-1
COC(=O)c1[nH]cnc1C(=O)c1ccccc1,1,0%,-2,2.0,-3.8,1.7,4
CC(C)OC(=O)/C(C#N)=C/c1cn(C)c2ccccc12,-3,-3%,-6,-1.0,1.8,4.1,3
Cc1ccc(NS(=O)(=O)c2cccc(C(=O)OCC(=O)NCc3ccco3)c2)cc1,0,11%,1,-2.9,5.4,2.1,-2

# Compound profiles, as listed above:
# `COc1ccc(C(N)CCc2ccc(C)o2)cc1` (configuration not stated) as listed: B2AR ag = 10; Vif A3G = 4%; ALR H2O2 inh = 1; HNF4A DNA FP = 10; RanGTP-Impb inh = -7.0; LANA-H2A inh = 2.7; Calb FLC = 0
# `Cc1ccc(NS(=O)(=O)c2cccc(C(=O)OCC(=O)NCc3ccco3)c2)cc1` as listed: B2AR ag = 0; Vif A3G = 11%; ALR H2O2 inh = 1; HNF4A DNA FP = -2.9; RanGTP-Impb inh = 5.4; LANA-H2A inh = 2.1; Calb FLC = -2

# (further entries)
SMILES,B2AR ag,Vif A3G,ALR H2O2 inh,HNF4A DNA FP,RanGTP-Impb inh,LANA-H2A inh,Calb FLC
Cc1ccc(N=C(NO)c2nonc2N)c(C)c1,3,-4%,74,-0.7,-2.2,-2.4,0
O=S(=O)(c1cccs1)N1CN(Cc2cccs2)c2nc3ccccc3nc21,-15,3%,-22,-2.2,5.8,6.7,27
COc1ccc(S(=O)(=O)N2CCOC23CCN(C(=O)c2c(F)cccc2Cl)CC3)cc1,12,-2%,-1,2.6,-1.0,-0.2,19
CCc1ccc(NC(=O)c2sccc2-n2cccc2)cc1,-1,-4%,0,-0.1,2.0,0.5,9
O=S(=O)(NN1CCOCC1)c1ccc(Cl)s1,9,-6%,-6,-0.6,4.8,1.3,6
O=c1nc(-c2ccccc2)c2cc(Br)ccc2[nH]1,4,/,13,-5.8,5.4,-7.1,0
NC(=O)c1c(NC(=O)CSc2nnc(Cc3ccccc3)n2Cc2ccco2)sc2c1CCC2,-5,12%&-38%,87*,-3.5,-0.2,-2.5,-25
CCN(CC)CCNC(=O)c1cccc(NC(=O)C(=O)c2ccccc2NC(C)=O)c1,3,11%,-6,1.2,3.1,1.5,-2
CCOc1cc(N2CCOCC2)c(OCC)cc1NC(=O)Cn1nc(C)c([N+](=O)[O-])c1C,-12,1%,-20,4.2,/,0.9,-2
O=C(CSc1nc(-c2ccccc2)cs1)Nc1cccc([N+](=O)[O-])c1,-5,?,98*,-0.3,-0.3,4.8,3
O=C(NC(=Nc1nc2ccccc2o1)NC(=O)c1ccccc1)c1ccccc1,0,-5%,-2,0.1,-0.8,1.7,-9
CCOC(=O)C(C)n1cnc2c(nnn2-c2ccc(C)cc2)c1=O (configuration not stated),4,?,-8,-1.0,9.3,6.6,2
C=CCNc1nc(NCCN2CCOCC2)nc(OC)n1,1,2%,1,-2.3,-2.4,0.5,1
Cc1ccc(C2C3CSCC=C3C(C#N)=C(N)C2(C#N)C#N)cc1 (configuration not stated),13,9%,93*,17,16*,-2.8,90*
COc1ccc(-n2nc(C(=O)O)nc2-c2ccccc2)cc1,6,-2%,100*,-1.4,0.5,2.1,-3
O=S(=O)(NCC1CC1)c1cc(Cl)cc(Cl)c1,-1,-2%,-15,-2.8,6.5,-1.0,-2
Oc1ccc(-c2csc(NCc3ccco3)n2)cc1,-12,24%,54,9.0,0.2,1.3,-8
CC1CC(C)CN(C(=O)c2ccc(C#N)cc2)C1 (configuration not stated),-4,/,-16,-0.9,-1.4,-2.7,10
COc1ccc(N2CC(C(=O)Nc3cccc(OC(C)C)c3)CC2=O)cc1 (configuration not stated),-28,/,-1,-0.6,1.0,0.4,3
CCn1cc(C(=O)N[C@H](C(=O)NCCN2CCOCC2)C(C)C)c(=O)c2cc3c(cc21)OCO3,11,-2%,8,-1.5,1.4,-0.3,3
Cc1ccccc1NC(=O)C(C)O/N=C/c1cccc([N+](=O)[O-])c1 (configuration not stated),-1,-1%,-11,2.8,0.9,-6.0,2
Cc1ccc2c(c1Br)/C(=N/N1C(=O)c3ccccc3C1=O)C(=O)N2,2,3%,0,3.0,-1.9,6.3,-2
O=C(CCSc1ccccc1)OCn1nnc2ccccc2c1=O,-2,8%,-1,-2.4,1.9,-0.5,-9
Cn1cc(S(=O)(=O)N2CCOCC2)cc1C(=O)Nc1ccc(Cl)cc1,4,/,-20,1.7,5.0,-2.5,-1
Cc1ccc(-n2nnnc2SCCNS(=O)(=O)c2ccccc2)cc1C,-5,2%,-14,0.7,-2.0,10,5
CC1CCC(NC(=O)CCNS(=O)(=O)c2ccccc2)CC1 (configuration not stated),-4,/,0,-3.9,0.6,-8.8,-13
Cc1ccc(CN2CCC(c3cc(-c4ccc(Cl)cc4)n[nH]3)CC2)cc1,-5,/,-4,0.0,3.2,-3.9,2
NCCCCCC(=O)O,-7,/,/,-0.3,/,0.9,/
O=C(c1cccc(N2CCCC2=O)c1)N1CCN(c2cccc(Cl)c2)CC1,-9,0%,4,5.2,4.2,-0.5,-5
Cn1c(=O)[nH]c(=O)c2c1nc(CN1CCN(c3ccc(F)cc3)CC1)n2CCCc1ccccc1,-6,24%&11%,8,-3.4,4.0,-0.4,10
COc1ccc(NC(=O)Cn2cnc3ccccc3c2=O)cc1OC,-8,8%,-1,1.9,?,16,24
CC(=O)c1ccc(NC(=S)NCc2cccnc2)cc1,-6,?,0,0.4,-1.6,-1.4,6
CNC(=O)C1CC(=O)N(c2ccc(OCC(=O)Nc3ccccc3C)cc2)C1 (configuration not stated),-5,0%,/,-3.8,/,/,/
Cc1ccc(C)c2c1cc(C)c1nnc(SCC(=O)c3cccs3)n12,-9,/,-3,-1.0,5.1,-2.8,18
CC(NC(=O)COC(=O)CCN1C(=O)C2CC=CCC2C1=O)c1ccc(Br)cc1 (configuration not stated),3,6%,/,6.3,/,3.2,/
CCN(CC)c1ccc(NC(=O)c2cccc(OC)c2)c(C)c1,10,-4%,/,3.1,-1.8,0.9,-2
COc1ccccc1CNC(=O)C1Cc2cc(S(=O)(=O)N3CCCCC3)ccc2N1C(C)=O (configuration not stated),-1,/,-4,-5.3,1.8,-2.2,5
CS(=O)(=O)N1CCN(c2ccc([N+](=O)[O-])c(NCc3cccnc3)c2)CC1,0,-7%,-4,-1.4,0.8,0.1,2
CC(=O)NC(CCS(C)(=O)=O)C(=O)Nc1ccc2c(c1)OCO2 (configuration not stated),-2,8%,-16,5.7,4.0,-0.9,8
O=C(CCNC(=O)OCc1ccccc1)NC1CCCCC1,2,/,2,-0.4,0.9,3.6,13
CCCN1CCN(CCCNC(=S)Nc2ccc(F)cc2)CC1,-8,6%,4,-3.3,1.8,1.8,-16
O=C(O)C1(c2ccccc2)CCN(S(=O)(=O)c2ccc(Cl)s2)CC1,-9,-1%,-3,0.6,?,1.2,-3
CC(=O)NC1(C(F)(F)F)N=C2SCCN2C1=O (configuration not stated),0,-2%,11,0.5,7.0,0.4,-8
Cc1csc(SC(C)C(=O)NCC(=O)Nc2ccc(F)c(F)c2F)n1 (configuration not stated),5,-9%,0,-2.0,0.5,-0.5,-6
CCOC(=O)N1CCN(C(=O)CCNS(=O)(=O)c2ccccc2)CC1,-3,/,-1,-1.5,2.4,0.9,4
COc1cc2nc(CN3CCN(S(=O)(=O)c4ccc(Br)cc4)CC3)[nH]c(=O)c2cc1OC,1,/,-2,3.1,/,0.2,/
CS(=O)(=O)c1ccc(SCC(=O)NC2CCS(=O)(=O)C2)c([N+](=O)[O-])c1 (configuration not stated),0,-1%,-31,-0.5,3.2,1.9,-4
CC(=O)NC(CC(=O)Nc1cccc(S(=O)(=O)N2CCCCC2)c1)c1ccccc1 (configuration not stated),2,7%,/,-0.5,-3.0,2.0,-3
COc1ccc(C(=O)NCC(=O)N2CCN(c3ncccn3)CC2)cc1OC,-5,-1%,-1,-1.4,/,/,/
Cc1nc2ncnn2c(C)c1CCC(=O)NC(C)c1ccc2c(c1)OCCO2 (configuration not stated),3,-4%,-3,6.4,?,-0.1,9
Cc1ccc(S(=O)(=O)NC(=S)c2ccccc2)cc1,-6,/,/,-4.8,4.1,0.0,1
Cc1ccc(NC(=S)Nc2ccc(S(=O)(=O)Nc3ncccn3)cc2)c(C)c1,5,-3%,2,4.6,-2.4,-2.8,5
CCCCc1nc(NCc2ccccc2)c(C#N)c2c1CCCC2,-2,16%,-29,1.1,6.9,-11,-11
O=C(c1c(F)cccc1F)N1CCN=C1SCc1ccccc1,-1,-6%,5,-1.9,-3.4,0.0,3
O=C(O)C1CCCCC1C(=O)NCc1ccncc1 (configuration not stated),1,-6%,1,7.0,0.5,-0.9,13
